# GALR2 ag = activates the human galanin receptor 2. AID 803. 140,000 compounds, 0.48% hits. O43603. activation, %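 (tested at 5 µM)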. GALR2-expressing cells, agonist activation read-out;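 active means above mean plus 3 SD of all compounds, about 5% in these data, not always enough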;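 further: 0% = vehicle buffer wells and 100% = reference agonist at full effect; tested in CHO reporter cells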
# Target sequence (O43603 whole entry, looked up): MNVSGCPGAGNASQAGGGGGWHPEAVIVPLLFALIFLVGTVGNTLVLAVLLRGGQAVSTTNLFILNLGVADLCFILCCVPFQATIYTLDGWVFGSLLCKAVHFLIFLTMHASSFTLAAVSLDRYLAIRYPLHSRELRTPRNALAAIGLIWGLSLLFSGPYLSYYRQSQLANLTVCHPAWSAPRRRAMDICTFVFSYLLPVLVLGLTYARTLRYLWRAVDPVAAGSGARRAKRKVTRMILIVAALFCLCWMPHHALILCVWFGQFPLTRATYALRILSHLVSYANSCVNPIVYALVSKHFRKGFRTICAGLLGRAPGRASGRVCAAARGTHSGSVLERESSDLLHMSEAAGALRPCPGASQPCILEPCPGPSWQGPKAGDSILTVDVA
# PKD1 inh = inhibitors of human PKD1 kinase | PKD1 kinase fluorescence polarization assay | inhibition, %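 (about 10 µM by stock and volumes)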 | 200,000 compounds, 0.056% hits;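 active means inhibition of 50% or more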;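 further: controls were vehicle for no effect and a reference inhibitor for full effect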
# Insulin prom inh = TRM-6 insulin promoter activity inhibition; TRM-6 cells (human fetal islet line), insulin promoter-eGFP reporter, imaging; reporter expression induced with tamoxifen; 130,000 compounds, 0.9% hits; inhibition, % at 2 µM;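 active means inhibition above the mean plus 3 SD, with well images judged a real hit on visual review, cut at about 60% in these data, passing the limit was not always enough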
# HSV replic up = HSV replication enhancement. HSV replication augmentation in cells, fold increase. maximum fold increase. 220,000 compounds, 0.005% hits;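 active means peak rise of 1.5-fold or more in the series; tested in PC3 cells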;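 further: first round at 10 µM; read as green reporter fluorescence; hits show the peak of a series up to 25 µM; 1 = signal of infected wells without compound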
# RGS16-Gao HTS = regulators of human RGS16-Galphao interaction; O15492+P09471; bead-based flow cytometry RGS16-Galphao binding, fluorescence; actives lie on both sides; binding response (% of control), % at 10 µM; 220,000 compounds, 0.38% hits;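 active means below 25% or above 175%, edge rows of some plates excepted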;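 further: Galphao activated by GDP with aluminum fluoride before binding; 100% = wells without compound and 0% = beads without RGS; some results beyond the cut were filed as inactive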
# Target sequence (O15492 whole entry, looked up): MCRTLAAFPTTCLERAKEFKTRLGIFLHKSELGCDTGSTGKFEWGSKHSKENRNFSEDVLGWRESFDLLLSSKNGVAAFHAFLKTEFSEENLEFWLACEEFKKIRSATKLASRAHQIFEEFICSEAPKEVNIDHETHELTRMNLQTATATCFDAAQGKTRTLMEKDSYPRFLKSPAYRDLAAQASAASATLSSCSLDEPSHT
# Target sequence (P09471 whole entry, looked up): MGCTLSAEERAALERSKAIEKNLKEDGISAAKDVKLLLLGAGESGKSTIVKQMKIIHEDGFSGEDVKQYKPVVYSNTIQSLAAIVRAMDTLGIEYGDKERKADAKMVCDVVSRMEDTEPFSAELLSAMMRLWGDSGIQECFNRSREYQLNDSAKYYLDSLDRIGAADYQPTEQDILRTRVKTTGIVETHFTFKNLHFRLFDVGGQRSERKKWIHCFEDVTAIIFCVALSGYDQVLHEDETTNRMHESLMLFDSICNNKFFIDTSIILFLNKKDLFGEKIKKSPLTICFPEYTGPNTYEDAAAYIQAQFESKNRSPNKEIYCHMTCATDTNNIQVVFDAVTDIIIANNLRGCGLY
# Insulin prom inh cell count = also measured in Insulin prom inh; calls as there; normalized cell count, %; measured here: cell count, toxicity; reference of the scale not given here;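 cells exposed to compound for 48 h; stained nuclei by imaging scaled within each plate; lower means fewer cells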
# HSV replic up primary fold = recorded beside HSV replic up, whose call it bears; fold increase; compound at 10 µM; measured here: primary screen fold increase 10 uM; tested in PC3 cells;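 GFP signal in the first replicate; 1 = infected wells without compound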
# Starred values were filed as active, the others as inactive; i = inactive; / = no result given. This is a random part of the collection. Share with any hit: about 1.3%.
smiles,GALR2 ag,PKD1 inh,Insulin prom inh,Insulin prom inh cell count,HSV replic up,HSV replic up primary fold,RGS16-Gao HTS
Cc1ccc(C2N(c3ccccc3)C(=S)N3CCCN23)cc1 (stereo not given),-0.6,-6,34,79,i,1.1,107
CCn1c(SCC(=O)N2CCc3ccccc3C2)nc2c1c(=O)n(C)c(=O)n2C,-0.7,-17,-92,168,i,1.1,99
Cc1cc(C)n(C(=O)c2c([N+](=O)[O-])cnn2C)n1,-1.3,-2,10,87,i,0.89,103
CCOC(=O)c1oc2ccc(CNCCO)c(Cl)c2c1C,-1.8,-6,-184,92,i,0.94,97
CN(c1ccccc1)S(=O)(=O)c1cccc(C(=O)OCC(=O)NCc2ccco2)c1,/,-2,19,49,i,1,108
CCOc1ccc(NC(=S)NC(C)c2cccs2)cc1 (stereo not given),-0.8,5,-7,85,i,1.1,122
C[C@H](NC(=O)c1ccc(Cl)cc1)C(=O)NCCc1ccc(S(N)(=O)=O)cc1,/,1,-49,65,i,0.93,104
Cc1ccc(C)n1-c1ccc(C(=O)Nc2ccccc2)cc1,-1.0,-7,0,92,i,0.93,105
COc1ccc(CNC(=O)N[C@H](C(=O)O)C(C)C)cc1OC,/,/,/,/,i,0.93,101
O=C(COC(=O)c1ccc([N+](=O)[O-])s1)Nc1ncc(C(F)(F)F)cc1Cl,-1.2,3,/,/,i,1,98
Cc1cccn2c(=O)c3cc(C(=O)O)n(C)c3nc12,-1.7,-6,21,137,i,1,106
CCN(CC)S(=O)(=O)c1ccc(C2CNC(=O)C2)cc1 (stereo not given),-1.2,-14,/,/,i,1,99
Cc1ccc(N2C(=O)c3ccccc3C2=O)cc1C,-1.9,-2,-17,84,i,0.94,79
Fc1ccc(N/N=C/c2ccc(N3CCOCC3)cc2)c(F)c1,/,-2,/,/,i,1,96
CCOc1ccc(/C=N/NC(=O)CSc2ccccn2)cc1O,/,/,/,/,i,1.1,99
COc1ccc(CSc2nnc(C)n2N)cc1,-1.1,0,/,/,i,1,101
CC1=C(C)CC(C(=O)NNC(=O)c2ccccc2O)C(C(=O)O)C1 (stereo not given),-2.2,-8,-13,143,i,0.88,98
C/[N+]([O-])=C\C1C(=O)CCCC1=O,/,-4,/,/,i,0.65,104
CCS(=O)(=O)N1CCC(C(=O)Nc2cccc(C(C)=O)c2)CC1,-2.4,-11,0,105,i,0.93,100
COC(=O)C1C(C(C)C)N(c2ccccc2)OC1(C)O (stereo not given),-2.0,-13,15,136,i,0.62,96
CCCN(CC(=O)Nc1ccccc1C)C(=O)c1cc(=O)[nH]c2ccccc12,/,-2,/,/,i,1.1,100
Cc1ccc(NC(=O)/C(CN(C)C)=N\O)cc1,-3.2,-6,0,171,i,0.97,95
CC(=O)Nc1ccc(-c2csc(NC(=O)Nc3ccccc3)n2)cc1,/,6,/,/,i,0.75,98
Cc1cccc(NC2(C(F)(F)F)N=C3SCCN3C2=O)n1 (stereo not given),0.6,4,9,117,i,0.96,100
O=C1C(C23CC4CC(CC(C4)C2)C3)C(=O)N(c2ccccc2)N1c1ccccc1,0.8,4,-23,157,i,1.2,93

# (listing goes on)
smiles,GALR2 ag,PKD1 inh,Insulin prom inh,Insulin prom inh cell count,HSV replic up,HSV replic up primary fold,RGS16-Gao HTS
COc1ccc(C[C@H]2CN3C(=NC[C@@H]3Cc3ccccc3)N2CCNC(=O)c2ccc(C)c(Br)c2)cc1,/,6,/,/,i,0.55,99
COc1cc2c(cc1OC)CN(C(=O)CCN1C(=O)C3CCCCC3C1=O)CC2 (stereo not given),/,4,/,/,i,0.96,102
CCC(C)NS(=O)(=O)c1ccc(OCC(=O)NCc2ccccn2)cc1 (stereo not given),/,3,-40,39,i,0.94,107
CN(C1CCS(=O)(=O)C1)S(=O)(=O)c1ccccc1[N+](=O)[O-] (stereo not given),-0.7,-3,-21,90,i,1.1,99
CCCCCCn1c(N2CCN(c3ccccc3)CC2)nc2c1c(=O)[nH]c(=O)n2C,-0.3,0,25,92,i,0.86,100
COc1ccc(NC(=O)C2CCCN(c3nc(C)cc(C)n3)C2)cc1 (stereo not given),/,5,/,/,i,0.98,105
CC1(C)Cc2c(sc(/N=C/N3CCCC3)c2C#N)C(C)(C)N1,1.6,-6,34,56,i,0.96,100
Cc1ccc(-n2nc(C)c(/C=N/n3c(C)n[nH]c3=S)c2Cl)cc1,/,3,/,/,i,1,100
O=C(COc1ccc2ccccc2c1)NNC(=O)Cc1ccccc1,-2.0,-4,/,/,i,1.1,107
CCOC(=O)CC(=O)N/N=C/c1c(N)n(C)c(=O)n(C)c1=O,/,-5,-25,118,i,0.97,96
COc1ccc(C(=O)COC(=O)c2ccc(N(C)C)cc2)cc1,/,-6,-35,116,i,1,103
Cc1cc(C)c(C)c(S(=O)(=O)N2C(=S)NC(=O)C2C(C)C)c1C (stereo not given),-1.6,-2,-23,132,i,0.94,101
COc1ccc(N2CCN(Cc3ccc(Br)s3)CC2)cc1,0.2,0,/,/,i,0.97,103
Cc1ccc(S(=O)(=O)CCC(=O)OCC(=O)Nc2ncc(Cl)cc2Cl)cc1,-1.7,-16,36,142,i,0.9,99
O=C(CSC(=S)N1CCCC1)c1cc(Br)cc(Br)c1O,/,8,/,/,i,0.95,100
COC(=O)N/N=C/c1cccc(OCCSc2ccc(Cl)cc2)c1,0.8,3,8,193,i,0.96,105
O=c1[nH]c2ccc(S(=O)(=O)N3CCN(Cc4ccccc4)CC3)cc2[nH]c1=O,-2.0,-2,-88,89,i,0.83,108
O=c1[nH]c2cccnc2c2ccsc12,/,5,/,/,i,0.99,97
COC(=O)c1[nH]c2ccc(C)cc2c1NC(=O)CCN1CCN(C2CCCCC2)CC1,0.3,0,/,/,i,0.98,109
CCOC(=O)COc1nc(-c2ccc(C)cc2)cc(-c2ccco2)c1C#N,/,/,/,/,i,0.87,103
CC(C)(Oc1ccc(Cl)cc1)C(=O)NC1CCSC1=O (stereo not given),-1.3,-9,44,132,i,0.87,105
COC(CNC(=O)c1cc(C(=O)c2c(-c3c(Cl)cccc3Cl)noc2C)c[nH]1)OC,-0.3,-5,-52,111,i,0.93,71
Cc1cccc(N2C(=O)CC(N3CCN(Cc4ccc5c(c4)OCO5)CC3)C2=O)c1 (stereo not given),-0.5,-5,-62,102,i,0.89,88
Cc1ccc(SCC(=O)NC(=O)NCc2ccccc2)c(C)c1,-0.3,17,-8,172,i,1.1,103
CNc1c([N+](=O)[O-])cnn1-c1ccc(Cl)cc1,-0.4,-6,/,/,i,0.93,101

# (listing goes on)
smiles,GALR2 ag,PKD1 inh,Insulin prom inh,Insulin prom inh cell count,HSV replic up,HSV replic up primary fold,RGS16-Gao HTS
CCn1c(CNc2ccc(OC)cc2)nnc1SCC(=O)Nc1ccc(F)cc1,-1.6,0,-83,127,i,0.91,103
CC(=O)c1c(C)[nH]c(C(=O)OCc2ccccc2)c1C,-0.7,14,-79,147,i,1,106
CCOC(=O)c1nn(-c2ccccc2)c(C(=O)OCC)c1N,-4.8,-4,17,129,i,0.99,90
Cc1ccc2c(c1)c(C)cc[n+]2Cc1ccccc1,-0.6,-8,/,/,i,0.98,118
Cc1ccc2nc(-c3ccccc3)c(CN3CCOCC3)n2c1,/,-4,/,/,i,0.91,101
O=C(Nc1ccc(OC(F)F)cc1)c1ncc(Cl)c(Cl)c1Cl,/,-7,-7,116,/,/,98
N#CC1=C(N)N2C(=C(C#N)C13CCCC3)Nc1ccccc12,/,6,/,/,i,1.1,106
COc1ccc(OC)c(-c2cc(C3CCN(C(=O)OC(C)(C)C)CC3)[nH]n2)c1,/,6,/,/,i,0.88,98
O=C(c1ccc(Cl)cc1)N1CCN(c2cc(=O)[nH]nc2-c2ccccc2)CC1,-0.3,14,-32,67,i,0.89,98
O=C(N/N=C/c1c[nH]c2ccccc12)c1[nH]c2ccc(Br)cc2c1-c1ccccc1,8.1*,4,-233,4,i,0.56,110
O=C(NC(=S)Nc1ccc(Cl)cn1)C12CC3CC(CC(C3)C1)C2,/,-2,5,135,i,1.1,86
O=C(CN1CCN(S(=O)(=O)c2ccc3ccccc3c2)CC1)Nc1ccc2c(c1)CCC2,-0.6,-3,-17,141,i,0.89,111
O=C(C1CCOCC1)N1CCC(CO)(CCc2ccccc2)CC1,/,-2,/,/,i,1,100
COc1ccc(/C=N/NC(=O)c2ccccc2O)cc1Cn1nnc2ccccc21,/,/,/,/,i,1,98
Cc1ccc(C)c(SCC(=O)OCC(=O)Nc2ncc(C(F)(F)F)cc2Cl)c1,-1.2,2,/,/,i,1.1,98
O=C(c1nc2nc(-c3ccccc3)cc(C(F)(F)F)n2n1)N1CCCCC1,0.4,-4,-53,131,i,0.97,89
O=C(O)c1cc(S(=O)(=O)Nc2ccc3c(c2)OCCO3)c(Cl)cc1Cl,-0.7,-1,/,/,i,0.78,114
Cc1ncoc1C(=O)N1CCCC(C(=O)c2ccc(Oc3ccccc3)cc2)C1 (stereo not given),/,-5,/,/,i,1.1,102
Cc1nnc(SCC(=O)NC(=O)NCc2ccco2)n1Cc1ccccc1,-0.5,-1,0,92,i,0.89,93
Brc1ccc(C2Nc3cccc4cccc(c34)N2)s1,-0.8,7,-28,39,i,1,140
COC(=O)Nc1ccc(S(=O)(=O)N2CCN(c3ccc(F)cc3)CC2)cc1,-1.7,-7,21,143,i,0.95,104
O=C(CN1CCOCC1)Nc1nc2ccc([N+](=O)[O-])cc2s1,/,6,/,/,i,1.1,102
COc1ccccc1C1CC(c2ccc(Br)cc2)=NN1C(=O)c1cccnc1 (stereo not given),-1.5,2,28,73,i,0.85,96
Cc1ccc(-n2cnc3cc(NCc4cccs4)ccc32)cc1,-1.9,-7,7,116,i,0.9,103
Cn1c(CCc2nc3ccccc3[nH]2)n[nH]c1=S,/,1,36,108,i,0.98,99

# New compounds follow
smiles,GALR2 ag,PKD1 inh,Insulin prom inh,Insulin prom inh cell count,HSV replic up,HSV replic up primary fold,RGS16-Gao HTS
Cc1ccc(C2CCN(C(=S)NC3CCCCC3)C2)cc1 (stereo not given),/,5,/,/,i,1.1,99
COc1ccc(C(=O)CSc2nnc(CNc3nc(-c4ccccc4)cs3)n2C)cc1,-2.9,-1,14,68,i,0.9,97
Cc1ccc(NC(=O)CSc2nc(O)c(Cc3ccccc3)c(=O)n2-c2ccccc2)cc1,0.1,-1,-44,89,i,1,102
Cc1cccc(-n2ncc3c(NCCCO)ncnc32)c1,-3.3,-5,/,/,i,0.81,108
Cc1ccc(/C=C/C(=O)NCC2COc3ccccc3O2)o1 (stereo not given),/,1,/,/,i,1,71
O=C(NCC(c1cccs1)N1CCOCC1)c1ccccc1NS(=O)(=O)c1cccc([N+](=O)[O-])c1 (stereo not given),-0.1,6,/,/,i,1,96
Cc1cccc(N(Cc2cc3ccccc3[nH]c2=O)S(=O)(=O)c2ccccc2)c1,0.2,-3,39,107,i,1,104
COc1ccc(Cl)cc1Nc1nc(C)cc(=O)[nH]1,-0.4,7,31,103,i,0.85,103
Cc1ccc2nc3n(c(=O)c2c1)CCC3,-1.0,8,3,149,i,0.9,92
COC(=O)C1=CN(CCCN2CCCC2=O)C=C(C(=O)OC)C1c1cccs1,4.0,-3,/,/,i,0.87,104
O=C(c1ccc(C#Cc2ccccc2)o1)N1CCN(c2ccccn2)CC1,-0.8,-8,/,/,i,0.91,102
O=C(NCCC1=CCCCC1)C(=O)NCCc1ccc(Cl)cc1,/,-2,/,/,i,0.94,98
CN(C)CC/C=C1/c2ccccc2COc2ccccc21,/,/,/,/,i,0.86,103
O=C(OCCOc1ccccc1Cl)c1ccc(-n2cnnn2)cc1,-2.2,0,24,73,i,1.1,101
Cc1oc2ccccc2c1CC(=O)NCCCN(C)C,/,/,/,/,i,0.81,100
Cc1ccc(CNS(=O)(=O)NCc2ccccc2)cc1,-0.1,-5,8,97,/,/,105

# Compound activity from PubChem.
